ClpP mod – qHTS Assay for Activators of ClpP. ATP-dependent Clp protease proteolytic subunit (Bacillus subtilis (strain 168)), P80244. purified B. subtilis ClpP, FRET peptide cleavage, 20 min. Potency, µM (highest dose often 57.5 µM), without a hit: at the top dose activity change, negative = active. 340,000 compounds, 1.9% hits. AID 651965, 2013; active = well fitted falling curve with a large enough effect; inconclusive = small, poorly fitted or top-dose-only effect; inactive = no such curve, though single readings can be large or run the other way; further: the source files actives as falling curves though it sought activators and does not explain the sign; nearly all actives have a fitted effect of over 65% in size; many hits overshoot -100%
Target sequence (P80244 whole entry, looked up): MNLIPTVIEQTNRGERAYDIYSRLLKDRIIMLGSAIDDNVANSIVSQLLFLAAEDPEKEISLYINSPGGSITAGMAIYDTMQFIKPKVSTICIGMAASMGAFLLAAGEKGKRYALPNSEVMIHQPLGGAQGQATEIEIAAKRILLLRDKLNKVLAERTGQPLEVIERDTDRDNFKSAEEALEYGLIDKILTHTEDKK
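ClpP 10 microg/mL final, pH 8 Tris/KCl buffer with BSA, glycerol, Tween-20; compound pinned in; FRET-FV substrate; RT 20 min; Ex320/Em430; ΔFRET vs ADEP 5.8 microM, DMSO, no enzyme.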
Numbers without * were called inactive; ? = inconclusive. Potency means the concentration at half of the fitted maximal effect. A portion of the library. The share of hits here may be higher or lower than overall.

SMILES	ClpP mod
COc1ccccc1Nc1ncnc2scc(-c3ccc(F)cc3)c12	28µM*
CCOC(=O)C1CCCN(C(=O)c2ccc3c(c2)N(Cc2ccccc2F)C(=O)c2ccccc2S3=O)C1 (centres undefined)	-1.7%
CCCNC(=O)Cn1nc(-c2ccc(C)cc2)c2cnc3ccc(CC)cc3c21	-14%
Cc1ccccc1NC(=O)Cn1c(=O)n(CCC(=O)NCc2ccc3c(c2)OCO3)c(=O)c2sccc21	-1.2%
Cc1ccccc1Nc1c(-c2cc(Br)ccc2F)nc2ccccn12	4.5µM*
CCc1cnc2ccccc2c1/C=C/c1ccc(N(C)C)cc1	-0.1%
COc1ccc(C)cc1NC(=O)C1CCN(S(=O)(=O)c2ccc3c(c2)CCCN3C(C)=O)CC1	-0.4%
COc1ccc(S(=O)(=O)NCc2ccc3c(c2)CCN3C(=O)c2ccc(C)cc2)cc1Cl	-1.5%
Cc1cccc(NC(=O)CSc2nc3ccccc3nc2N2CCC(C)CC2)c1	-1.4%
COc1ccc2c(c1)c1c(c(=O)n(Cc3ccccc3)c(=O)n1Cc1cccc(Cl)c1)n2C	3.8%
Cc1c(Cl)cccc1NC(=O)Cn1nnc(-c2nc(-c3ccccc3)no2)c1N	-8.6%
CSc1ncc(C(=O)Nc2ccccc2C(=O)c2ccccc2)c(C)n1	-0.8%
COc1ccccc1NC(=O)c1oc2ccccc2c1NC(=O)Cc1ccccc1	4.1%
O=C(CCS(=O)(=O)c1cc(Br)cc2c1N(C(=O)C1CC1)CC2)NCc1ccc(Cl)cc1	-1.6%
CC(=O)c1ccc(NC(=O)C2CCC(CNS(=O)(=O)c3ccc(Br)s3)CC2)cc1 (centres undefined)	-1.5%
COc1ccc(CN(Cc2ccco2)c2cnc(S(C)(=O)=O)nc2C(=O)Nc2ccc(C)cc2C)cc1	-2.2%
COc1ccc(S(=O)(=O)c2c(O)c3ccc(C(=O)NCc4ccccc4)cc3[nH]c2=O)cc1	?
Cc1ccc(C)c(N2CCN(CCCNC(=O)c3nnc(Cc4ccc(F)cc4Cl)o3)CC2)c1	0.6%
CCCCn1c(=N)c(S(=O)(=O)c2ccc(C)cc2)cc2c(=O)n3cc(C)ccc3nc21	-3.7%
CCOc1cc(C(=O)Nc2ccc3c(c2)n(C)c(=O)c(=O)n3C)cc(OCC)c1OCC	48%
Cc1nc(SCC(=O)Nc2ccc(C)c(Cl)c2)cc(-c2ccccc2)n1	0.6%
COc1cccc(-c2cn3c(n2)sc2cc(C(=O)NCc4ccccc4F)ccc23)c1	5.0%
CCCCn1c(CCNC(=O)c2ccc(F)cc2)nc2ccccc21	0.8%
COc1ccc(OC)c(CNC(=O)NCc2noc3ccc(C)cc23)c1	1.3%
CCC(CC)C(=O)Nc1cccc(-c2nc3ncccn3c2C)c1	4.1%
CCOC(=O)c1cc(C)n(CC2CCC(C(=O)Nc3ccc(OC)cc3)CC2)c1C (centres undefined)	0.1%
COc1ccc(C(=O)NCCN2CCC(n3c(=O)[nH]c4ccccc43)CC2)cc1F	-0.4%
C=C1C=C(C(F)F)n2ncc(C(=O)N3CCCCC3)c2N1	-1.8%
CCc1ccc2c(c1)c(=O)c(S(=O)(=O)c1ccccc1)cn2CC(=O)Nc1cc(C)ccc1C	-13%
O=S(=O)(Nc1cccc(F)c1)c1ccc2[nH]c3c(c2c1)CCCCC3	-6.2%
O=C(NC1CCCc2ccccc21)c1cnn2c1NC(=C1CC1)C=C2C(F)F (centres undefined)	0.8%
CCC(CC)c1nn2c(=O)cc(COc3ccc(NC(=O)c4ccc(Cl)cc4)cc3)nc2s1	-11%
CCC(=O)N1c2ccccc2CC1C(=O)NCCc1ccccc1OC (centres undefined)	-2.9%
COC(=O)c1ccc(C2c3c(oc4ccc(C)cc4c3=O)C(=O)N2Cc2ccc3c(c2)OCO3)cc1 (centres undefined)	-14%
Cc1ccc(-n2c(=O)c3oc4ccccc4c3n(CC(=O)Nc3ccccc3)c2=O)cc1C	4.2%
CCCCCCn1nnc2sc(-c3ccccc3)cc2c1=O	-9.9%
COc1ccc(Cl)cc1NC(=O)CCCN1C(=O)C(c2ccccc2)Oc2cccnc21 (centres undefined)	-0.4%
O=C(C1=NOC2(C1)C(=O)Nc1ccccc12)N1CCCCC1 (centres undefined)	1.5%
Cc1ccc(C(=O)c2sc(Nc3ccccc3F)c(S(=O)(=O)c3ccccc3)c2N)c(C)c1	-12%
O=c1c(N2CCc3ccccc3C2)csc2ccc(Br)cc12	-19%
CN(C)c1ccc(/C=C/c2c3c(nc4ccccc24)CCCC3)cc1	-1.1%
COc1cccc(NC(=O)CSc2nnc(-c3cccs3)o2)c1	-3.0%
Cc1cccc(C)c1-n1nnnc1C(c1ccnc2ccccc12)N1CCN(C(=O)OCc2ccccc2)CC1 (centres undefined)	1.0%
CCOC(=O)c1ccc(NC(=O)c2cnn(-c3ccc(C)cc3C)c2C2CCN(C(=O)OC(C)(C)C)CC2)cc1	-20%
Cc1cc(C)c(S(=O)(=O)Nc2ccc3oc(C)c(C(=O)OC(C)C)c3c2)cc1C	-1.3%
CCOc1ccc(C(=O)c2cn(CC(=O)Nc3ccc(C)c(C)c3)c3ccc(OCC)cc3c2=O)cc1	-4.2%
Cn1c(=O)cc(SCC(=O)NCc2ccc(F)cc2)c2cc(Cl)ccc21	-7.0%
COc1ccc(CN(C(=O)Nc2cccc(Cl)c2)c2ccccn2)cc1OC	-2.0%
Cc1cccc(-c2nc3c4ccccc4nc(N4CCN(c5cccc(Cl)c5)CC4)n3n2)c1	-0.2%
Cc1ccc2onc(CNC(=O)N(C)Cc3ccccc3)c2c1	0.6%
CC(C)CN1C(=O)CN(S(C)(=O)=O)CC1(C)C(=O)NCc1ccccc1 (centres undefined)	-0.6%
Cc1ccc(-n2nnnc2CNC(=O)C(C)(C)C)cc1C	1.6%
CC1CN(C(=O)N2CCC(C(=O)NCCC3=CCCCC3)CC2)c2cc(Cl)ccc2O1 (centres undefined)	-0.2%
Cc1ccc(C)c(NC(=O)Cn2c(=O)n(Cc3ccco3)c(=O)c3oc4ccccc4c32)c1	32µM*
CCOc1ccc(CNS(=O)(=O)c2c(C(=O)N3CCC(C)CC3)c(C)n(C)c2C)cc1OC	-0.8%
CCC(=O)Nc1ccc(C)cc1-c1nc2ccccc2n(CC(=O)c2ccc(C)cc2)c1=O	-0.5%
CC(C)c1nn2c(=O)cc(COC(=O)c3ccc4c(c3)OCO4)nc2s1	-2.2%
CCc1ccc(C(=O)c2cn(Cc3ccc(F)cc3)c3cc(OC)c(OC)cc3c2=O)cc1	-1.5%
Cc1ccc(NC(=O)c2ccc3c(O)c(S(=O)(=O)c4ccccc4)c(=O)[nH]c3c2)cc1Cl	-4.7%
O=C(Nc1cccc(-c2nc3ccccc3[nH]2)c1)c1c(F)cccc1F	-28%

The list goes on:
SMILES	ClpP mod
CN(C)CCNC(=O)CCCN1C(=O)c2cccnc2Oc2ccc(Cl)cc21	-0.5%
CC(C)CCn1c(SCc2c(F)cccc2Cl)nc2ccsc2c1=O	0.8%
CCOC(=O)c1c(NC(=O)C2c3ccccc3Oc3ccccc32)sc(C)c1CC	-2.9%
COc1ccc(N(CC(=O)Nc2ccc(C)c(C)c2)S(=O)(=O)c2ccc(C)cc2)cc1OC	1.5%
COC(=O)C[C@@H]1CC[C@@H](NS(=O)(=O)c2cccc(OC)c2)[C@@H](CO)O1	-2.4%
COc1cc(CNC(=O)c2cnc3c(-c4cccc(C)c4)c(C)nn3c2C)cc(OC)c1OC	-5.1%
CC(C)(C)NC(=O)C(c1ccccc1)n1c(-c2ccc(-c3ccccc3)cc2)nc2ccccc21 (centres undefined)	4.7%
COc1ccc(OC)c(NC(=O)CSc2nc(-c3ccccc3C)nc3cc(=O)[nH]n23)c1	-0.5%
CC(C)CN1C(=O)CN(S(C)(=O)=O)CC1(C)C(=O)Nc1ccc2c(c1)OCCO2 (centres undefined)	-4.6%
CCOc1ccc(NC(=O)NC(C)c2c(-n3cccc3)sc3c2CCN(CC)C3)cc1 (centres undefined)	0.9%
CCOc1ccccc1Nc1sc(C(=O)c2ccccc2)c(N)c1C(=O)NCCc1ccccc1	-1.4%
CC(C)OCCCn1c(=O)c2ccccc2n2c(-c3cc(Cl)ccc3O)nnc12	-0.6%
Cc1ccc(CNC(=O)CN(c2cccc(C)c2C)S(=O)(=O)c2ccccc2)cc1	-6.3%
O=C(NCc1ccccc1)NC1COc2ccccc2C1 (centres undefined)	0.5%
CCc1nc2c(cnn2-c2ccc(Cl)cc2)c(=O)n1-c1ccc(OC)c(Cl)c1	1.7%
Cc1nc(N2CCCC2)ncc1C(=O)NCc1ccc(Cl)cc1	-23%
O=C(Cn1ccc2cc(S(=O)(=O)N3CCCCC3)ccc21)NCc1ccccc1Cl	-1.9%
CC(C)(C)OC(=O)N1CCC(c2c(C(=O)N3CCN(C(=O)c4ccco4)CC3)cnn2-c2ccc(Cl)cc2)CC1	-1.2%
Cc1ccc2nc(-c3cccc(NC(=O)c4cccc5c(Cl)cccc45)c3)oc2c1	-29%
COc1ccc(-c2cc(C(F)(F)F)nc(SCC(=O)N(C)Cc3ccccc3)n2)cc1	4.1%
CCOc1cccc(C2c3c(oc4ccccc4c3=O)C(=O)N2c2nc(C)c(C(=O)OC)s2)c1 (centres undefined)	-3.4%
O=C(CS(=O)(=O)c1cccc2nsnc12)N1CCN(c2cccc(C(F)(F)F)c2)CC1	-1.0%
Clc1ccc(-c2cn(-c3nc4ccccc4s3)nn2)cc1	0.6%
COc1ccccc1N1CCN(CCCNC(=O)c2cnn(-c3ccc(C)c(C)c3)c2C2CCN(C(=O)OC(C)(C)C)CC2)CC1	0.1%
COc1ccc(NC(=O)CSc2nc(O)c(C/C=C/c3ccccc3)c(=O)[nH]2)cc1	0.5%
COc1cc(OC)c(NC(=O)c2oc3ccc4c(c3c2C)C(=O)CC(C)(C)O4)cc1Cl	-3.6%
CC(C)n1c(SCC(=O)c2ccc(F)cc2)nc2c(sc3ccccc32)c1=O	-1.0%
CCOc1ccccc1NC(=O)Cn1c(=O)n(-c2ccc(C)c(C)c2)c(=O)c2c(C)c(C(=O)N(C)C)sc21	1.5%
Cc1ccc(CNC(=O)c2cc3c(s2)-c2ccccc2SC3)cc1	109%
O=C(c1ccc2c(c1)N(Cc1cccc(Cl)c1)C(=O)c1ccccc1S2(=O)=O)N1CCN(Cc2ccccc2)CC1	-0.5%

Fetched by compound from above, 2 records:
SMILES	ClpP mod
Cc1ccc2nc(-c3cccc(NC(=O)c4cccc5c(Cl)cccc45)c3)oc2c1	-29%
CCOc1ccccc1NC(=O)Cn1c(=O)n(-c2ccc(C)c(C)c2)c(=O)c2c(C)c(C(=O)N(C)C)sc21	1.5%

(next part)
SMILES	ClpP mod
CCc1nnc(NC(=O)CSc2nc3c([nH]c4ccccc43)c(=O)n2-c2cc(C)cc(C)c2)s1	-5.0%
CCOc1ccccc1NC(=O)Cc1noc2ccc(C)cc12	-2.0%
COc1cc(OC)c(NC(=O)N2CC3CCCN3c3ccccc32)cc1Cl (centres undefined)	-1.6%
CCN(CC)CCSc1nnc2c3cc(F)ccc3n(C)c2n1	-1.5%
CCc1ccccc1Nc1nn2c(=O)c3ccc(C(=O)NCCc4ccccc4)cc3nc2s1	-1.0%
COc1ccc(C)cc1-n1cnc2cc(C(=O)NC3CCCCCC3)ccc21	0.0%
Cc1ccc(NC(=O)c2cc3c(=O)n(Cc4cccnc4)ccc3nc2C)cc1F	9.1%
CCCCOC(=O)c1ccc(Nc2nnc(-n3nc(C)cc3C)c3ccccc23)cc1	-12%
O=C(CSc1nc(=O)[nH]c2c1CCC2)Nc1cc(C(F)(F)F)ccc1Cl	-5.3%
CN1C(=O)c2ccccc2Sc2ccc(NC(=O)NCc3ccc(Cl)cc3)cc21	-4.0%
CCOc1cc(C(=O)N(Cc2nc(-c3ccc(C)cc3)no2)C(C)C)cc(OCC)c1OCC	-0.8%
Cc1nc(N2CCOCC2)c2c(C(=O)N3CCN(c4ccccc4)CC3)c(C)oc2n1	-2.7%
COC(=O)c1cc(NC(=O)c2ccc(-c3ccc(Cl)cc3Cl)o2)cc(C(=O)OC)c1	?
CCc1ccc(S(=O)(=O)NCc2ccc3c(c2)CCN3C(=O)c2ccc(C)cc2)cc1	-3.1%
COc1ccc(N2CC(NC(=O)c3c(F)cccc3Cl)CC2=O)cc1OC (centres undefined)	1.3%
COc1ccc2c(C)c(CCC(=O)NCc3ccccc3OC)c(=O)oc2c1	3.9%
CCc1c(CN2CCN(c3cccc(C)c3C)CC2)csc1C	-0.8%
Cc1ccc(CSc2ncc(Cl)c(C(=O)Oc3ccc(F)cc3)n2)cc1	-6.3%

In the list so far, 14 have an aryl thioether with sulfur outside any ring:
SMILES	ClpP mod
Cc1cccc(NC(=O)CSc2nc3ccccc3nc2N2CCC(C)CC2)c1	-1.4%
CSc1ncc(C(=O)Nc2ccccc2C(=O)c2ccccc2)c(C)n1	-0.8%
Cc1nc(SCC(=O)Nc2ccc(C)c(Cl)c2)cc(-c2ccccc2)n1	0.6%
COc1cccc(NC(=O)CSc2nnc(-c3cccs3)o2)c1	-3.0%
Cn1c(=O)cc(SCC(=O)NCc2ccc(F)cc2)c2cc(Cl)ccc21	-7.0%
CC(C)CCn1c(SCc2c(F)cccc2Cl)nc2ccsc2c1=O	0.8%
COc1ccc(OC)c(NC(=O)CSc2nc(-c3ccccc3C)nc3cc(=O)[nH]n23)c1	-0.5%
COc1ccc(-c2cc(C(F)(F)F)nc(SCC(=O)N(C)Cc3ccccc3)n2)cc1	4.1%
COc1ccc(NC(=O)CSc2nc(O)c(C/C=C/c3ccccc3)c(=O)[nH]2)cc1	0.5%
CC(C)n1c(SCC(=O)c2ccc(F)cc2)nc2c(sc3ccccc32)c1=O	-1.0%
CCc1nnc(NC(=O)CSc2nc3c([nH]c4ccccc43)c(=O)n2-c2cc(C)cc(C)c2)s1	-5.0%
CCN(CC)CCSc1nnc2c3cc(F)ccc3n(C)c2n1	-1.5%
O=C(CSc1nc(=O)[nH]c2c1CCC2)Nc1cc(C(F)(F)F)ccc1Cl	-5.3%
Cc1ccc(CSc2ncc(Cl)c(C(=O)Oc3ccc(F)cc3)n2)cc1	-6.3%
